From PubChem
ClpP mod = qHTS Assay for Activators of ClpP. ATP-dependent Clp protease proteolytic subunit (Bacillus subtilis (strain 168)), P80244. Potency, µM (top dose mostly 57.5 µM), for inactives: at the highest dose activity change, negative = active. purified B. subtilis ClpP, FRET peptide cleavage, 20 min. AID 651965, 2013. 340,000 compounds, 1.9% hits; active = well fitted falling curve with a large enough effect; inconclusive = small, poorly fitted or top-dose-only effect; inactive = no such curve, though single readings can be large or run the other way; also: potency is read from the fitted curve at half-maximal effect; the source files actives as falling curves though it sought activators and does not explain the sign; nearly all actives have a fitted effect of over 65% in size; many hits overshoot -100%
Target sequence (P80244 whole entry, looked up): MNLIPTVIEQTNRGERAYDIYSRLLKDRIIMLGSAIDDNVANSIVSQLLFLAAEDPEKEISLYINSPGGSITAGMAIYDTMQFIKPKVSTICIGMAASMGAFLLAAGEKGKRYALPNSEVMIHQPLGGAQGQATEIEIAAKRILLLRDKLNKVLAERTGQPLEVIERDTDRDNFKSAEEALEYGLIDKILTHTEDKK
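Buffer: 100 mM Tris/HCl pH8, 100 mM KCl, 0.05% low protease BSA, 2.5% glycerol, 0.01% Tween-20. ClpP 10 microg/mL final; 20 min RT; delta FRET normalized to ADEP and DMSO controls.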
gsp agonist = gsp mutant agonism; 340,000 compounds, 0.13% hits; gsp mutant cells, cAMP HTRF, 30 min; control for the full effect not named in the record; Potency, µM (top dose mostly 76.9 µM), for inactives: at the top dose activation (cAMP increase), usual class: activators; active = well fitted activation curve with a large enough effect; inconclusive = small, poorly fitted or top-dose-only effect, or another doubt; inactive = no such curve, though single readings can be large or run the other way; cell line not stated here;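 also: phosphodiesterase inhibitor Ro 20-1724 added with compounds to block cAMP breakdown; potency is read from the fitted curve at half-maximal effect; nearly all actives have a fitted effect of over 60% in size; about a fifth of the inactives were tested at one dose only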
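Cells in DMEM/10% FBS with G418 were pretreated with compounds in DMSO plus […] (300 uM stock) for 30 min at 37C. cAMP was measured by HTRF (cAMP-d2 plus anti-cAMP antibody-K) after 30 min at room temperature.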
TRPML1 ag = agonists of human TRPML1 channel. Q9GZU1. TRPML1-expressing cells, Ca2+ dye fluorescence, FDSS; host cell line not named in the record; reference of the full effect not given here. activation, % (no concentration beside the values). 410,000 compounds, 0.12% hits. AID 624414; in the data active = activation above about 50%; inconclusive = about 30% to 50%; inactive = below about 30%; also: 0% is about no effect; the text of the record puts the active cut at 80%
Target sequence (Q9GZU1 whole entry, looked up): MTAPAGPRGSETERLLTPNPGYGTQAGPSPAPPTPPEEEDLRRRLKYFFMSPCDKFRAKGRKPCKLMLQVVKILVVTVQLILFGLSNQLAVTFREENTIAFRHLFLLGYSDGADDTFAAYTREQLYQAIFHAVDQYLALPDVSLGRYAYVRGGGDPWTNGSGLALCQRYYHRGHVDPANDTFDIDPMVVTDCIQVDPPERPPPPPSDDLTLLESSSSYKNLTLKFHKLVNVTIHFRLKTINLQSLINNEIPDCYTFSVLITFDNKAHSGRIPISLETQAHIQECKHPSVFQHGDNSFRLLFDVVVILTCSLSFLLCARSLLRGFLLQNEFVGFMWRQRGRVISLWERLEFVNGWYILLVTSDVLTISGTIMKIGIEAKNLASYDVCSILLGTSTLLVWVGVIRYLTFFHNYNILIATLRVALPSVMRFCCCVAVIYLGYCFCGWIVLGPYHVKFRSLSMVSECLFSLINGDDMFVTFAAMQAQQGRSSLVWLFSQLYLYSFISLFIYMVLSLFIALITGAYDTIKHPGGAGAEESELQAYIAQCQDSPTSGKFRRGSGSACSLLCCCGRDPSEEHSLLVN
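Tetracycline-induced TRPML1-DL cells are seeded and incubated overnight before loading with a no-wash Ca2+ dye and quencher. Agonist activity is taken from the 110 s fluorescence read following compound pin-transfer on an FDSS, before EC80 54-4 challenge.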
gsp antagonist = gsp mutant antagonism; Potency, µM (titrated, usually from 76.9 µM), for inactives: top-dose activity change, negative = inhibition, most hits filed as inhibitors; gsp-mutant cells, cAMP HTRF, 30 min; control for the full effect not named in the record; AID 624288; 340,000 compounds, 0.4% hits; active = falling curve of any shape with a large fitted effect; inconclusive = falling curve, mostly with a smaller effect; inactive = flat or rising curve; cell line not stated here;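 also: intracellular cAMP measured with PDE inhibitor Ro 20-1724 present during compound exposure; potency is read from the fitted curve at half-maximal effect; % is scaled to controls: 0 for no effect and ±100 for the full control effect; nearly all actives have a fitted effect of over 65% in size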
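Cells in G418 medium, seeded 16-24 h, 37C; buffer exchange to DPBS + 1 mM CaCl2, 0.5 mM MgCl2, 0.05% BSA; cpds in DMSO + […] (300 uM stock), 30 min 37C; HTRF cAMP detection.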
TRPML1 blocker = blocks the human TRPML1 channel; TRPML1-inducible cells, Ca2+ dye fluorescence, FDSS; active compounds read low; inhibition of EC80 agonist-evoked calcium signal; activity change, negative = inhibition, % (test concentration not listed); 390,000 compounds, 0.02% hits; AID 624415; in the data active means activity change below about -50%; inconclusive means about -30% to -50%; inactive means above about -30%;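 also: stimulus is agonist 54-4 at its EC80 concentration; % is scaled to controls: 0 for no effect and ±100 for the full control effect; compound concentration not given in the record; the text of the record puts the active cut at -80%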
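Calcium fluorescence in TRPML1-DL cells induced overnight with Tet: a 110 s read after compound pin addition, then a 110 s antagonist read after challenge with 54-4 at 4 uM final (EC80).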
Menin MLL FP FL = displaces fluorescein MLL peptide from human menin; Fluorescence polarization, fluorescein-MLL peptide displacement from menin; FP activity change, % at 61.4 µM; 290,000 tested, under 10 active; AID 1766; inconclusive = falling polarisation curve, or a change in total fluorescence; inactive = total fluorescence flat and polarisation flat or rising; no compound was filed as active; the % refers to the polarisation; negative = inhibition;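 also: % of control where 0% means no effect; inhibitors lower the polarisation; unlabelled MLL peptide was the positive control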
An asterisk follows results filed as active; u = inconclusive; x = no result given; & = joins results of further samples; [ ] = another dose, or the depositor's remark.

| SMILES | ClpP mod | gsp agonist | TRPML1 ag | gsp antagonist | TRPML1 blocker | Menin MLL FP FL |
| --- | --- | --- | --- | --- | --- | --- |
| CCC(C)(C)n1nnnc1C(c1ccc(F)cc1)N1CCC(C(N)=O)CC1 (stereo not drawn) | -3.8% | -35.1%[15.4 µM] | -1.5 | -12.6% | -15.6 | -0.8 |
| Cc1ccc(CCNC(=O)c2c(C)oc3ncnc(N4CCOCC4)c23)cc1 | 1.7% | x | 0.1 | x | 2.7 | x |
| Cc1ccc(CNC(=O)c2ccc(OCC(C)C)cc2)n1C | -16.3% | 8.7% | -0.2 | 0.7% | u | 10.2 |
| O=C(NCc1ccccc1)C12CC3CC(CC(C3)C1)C2 | -1.4% | -2.1% | -0.4 | 1.2% | -5.6 | 1.1 |
| O=C(CN1CCOCC1)Nc1cc(C(F)(F)F)ccc1Cl | -1.3% | 0.6%[15.4 µM] | -0.7 | 9.4% | -6.8 | -2.4 |
| CCCC(=O)Nc1nnc(Sc2ccc(N(C)C)cc2)s1 | -0.9% | 6.3% | 0.1 | 5.8% | -17.3 | -5.1 |
| CC(O)(c1ccc(Cl)cc1)C(c1ccccc1)c1ccccn1 (stereo not drawn) | -0.8% | -3.3% | 0.7 | -31.8% | -4.9 | x |
| CC(C)(C)OC(=O)NN1CC(=O)N2[C@@H](Cc3c([nH]c4ccccc34)C2(C)C)C1=O | x | 0.1% | 0.7 | 3.5% | 11.4 | -0.7 |
| C=CCSc1nnc(NC(=O)C2=COCCO2)s1 | -20.8% | 25.0%[15.4 µM] | 0.0 | -5.9% | 33.8 | x |
| Cc1ccc(C)c(Nc2nc(N)c3ccccc3n2)c1 | x | 30.2% | 1.9 | -2.1% | 14.6 | -3.7 |
| CCOc1ccc(NC(=O)CNC(=O)c2nn(-c3ccc(OC)c(OC)c3)c(=O)c3ccccc23)cc1 | x | 1.0%[15.4 µM] | -0.9 | 8.4% | -9.4 | 9.6 |
| CCc1nnc(NC(=O)CCC(=O)N2CCN(C3c4ccccc4-c4ccccc43)CC2)s1 | 1.1% | -7.2% | 1.6 | 15.5% | -9.1 | -0.5 |
| Cc1cc(C)nc(NS(=O)(=O)c2ccc(NC(=O)c3ccc4c(c3)OCCO4)cc2)n1 | x | 10.1%[15.4 µM] | 0.2 | x | -1.1 | 5.8 |
| Cc1cc(Cn2nc(-c3ccccc3)cc2C(=O)NCc2cccs2)on1 | 0.2% | -1.9% | -1.2 | -13.1% | 7.6 | x |
| Cc1ccc(S(=O)(=O)N2C[C@H]3n4c(=O)ccc(=O)n4C[C@H](OC(=O)Nc4c(C)noc4C)[C@@]3(O)C2)cc1 | -1.7% | 1.7% | 0.3 | x | 19.4 | x |
| COCCCNC(=O)CSc1nc2c(sc3ccccc32)c(=O)n1CCc1ccccc1 | u | x | -0.5 | x | -18.6 | x |
| CN(C)c1cc[n+](Cc2ccccc2)cc1 | -0.1% | -48.0%[inhibitor] | -0.9 | 1.6% | 2.9 | 1.1 |
| O=C1CC(C(=O)O)c2ccccc2N1 (stereo not drawn) | -2.9% | -38.0% | -0.2 | 9.6% | 13.0 | 2.9 |
| O=C1CCN(S(=O)(=O)c2cccs2)c2ccc(C(F)(F)F)cc2N1 | x | -1.7%[15.4 µM] | -0.5 | 21.9% | 3.6 | -1.0 |
| [N-]=[N+]=NCCN1CCN(Cc2ccccc2)CCC1=O | -1.0%&-0.5% | x | -0.3&-0.1 | 2.2% | 0.0 | -0.5 |
| COc1cc(NC(=O)c2sc3nc(C)nc(N4CCOCC4)c3c2C)cc(OC)c1OC | 0.0% | u | 0.9 | 20.5% | 12.3 | 6.9 |
| Cc1cc(NC(=O)CSc2nc(-c3ccc(Br)cc3)nc3c2c(=O)n(C)c(=O)n3C)no1 | -2.6% | u | 1.0 | -8.2% | 5.0 | x |
| COc1ccc(C(=O)NC2CC2)cc1OC1CCN(Cc2ccccc2O)CC1 | 0.7% | 19.9% | -0.1 | 7.6% | -6.7 | x |
| COc1ccccc1NC(=O)CN1CCN(CC(=O)Nc2ccc(OC)c(OC)c2)CC1 | -0.9% | 3.9% | 1.9 | -20.1% | 21.6 | -10.0 |
| CCOc1ccc(OCC)c(NC(=O)Cn2nc(CC)n3c(cc4sccc43)c2=O)c1 | -2.7% | x | -0.5 | x | -1.3 | x |
| Cc1cccc(-n2nnc(C(=O)NCc3ccccc3Cl)c2N)c1 | -1.8% | 4.3%[15.4 µM] | 2.2 | 0.2% | 2.7 | 1.8 |
| CC(=O)OCC1OC(OCc2cn(C[C@H]3CC[C@@H]([C@@H]4CC[C@H](Cn5cc(COC6OC(COC(C)=O)C(OC(C)=O)C(OC(C)=O)C6OC(C)=O)nn5)O4)O3)nn2)C(OC(C)=O)C(OC(C)=O)C1OC(C)=O (stereo partly drawn) | -5.0% | x | -0.5 | 7.3% | 3.7 | -5.0 |
| Cc1cc(C)n(C(=O)CCCC(=O)n2nc(C)cc2C)n1 | 0.6% | 16.1% | 1.2 | -1.0% | 3.8 | 1.4 |
| COc1ccc(-c2noc(N3CCC(C(=O)NCc4ccccc4Cl)CC3)n2)cc1 | -1.9% | u | 0.8 | -16.3% | 4.9 | 6.3 |
| CC(=O)Nc1nc2ccccc2n1Cc1ccccc1Cl | u | -4.5%[15.4 µM] | -0.5 | -17.5% | 2.8 | 1.1 |
| O=C(COc1ccc(Cl)cc1Cl)NC(=O)NC1CCCC1 | x | -3.8%[15.4 µM] | 2.9 | 0.6% | 61.3 | x |
| O=C(CS(=O)(=O)c1ccc(Br)cc1)N1CCOCC1 | -1.1% | 21.8% | -0.5 | 9.8% | 2.0 | x |
| CCN(CCC(=O)Nc1cc([N+](=O)[O-])ccc1OC)Cc1ccccc1 | -20.9% | -3.2% | 2.3 | 7.2% | 4.3 | 4.0 |
| COc1ccc(-n2nc3c(c2NC(=O)c2ccc(Br)o2)CS(=O)(=O)C3)cc1 | -3.0% | 6.6% | 3.3 | -0.3% | 3.1 | -2.8 |
| O=C1C(Nc2ccccc2)=C/C(=N/S(=O)(=O)c2cccs2)c2ccccc21 | 11.2µM* | 8.8% | 1.3 | 1.9% | 55.9 | 2.9 |
| CC(C)OC(=O)c1nnn(-c2nonc2N)c1CN1CCc2ccccc2C1 | -1.4% | -29.3% | 0.7 | -10.4% | 19.8 | 4.9 |
| CCOc1ccc(S(=O)(=O)N2CCC(C(=O)NCc3ccccn3)CC2)cc1 | x | 1.9% | 0.4 | 8.2% | 26.1 | 1.6 |
| O=C(NCc1ccc(-c2csnn2)cc1)c1cccs1 | x | 3.8%[15.4 µM] | -0.9 | 3.1% | 6.8 | -2.4 |
| Cc1ccc(S(=O)(=O)N2CCOCC2)cc1C(=O)OCC(=O)NCc1ccc2c(c1)OCO2 | 2.0% | -33.9%[inhibitor] | 0.3 | 8.0% | -6.6 | x |
| CC(NC(=O)c1ccc(N(C)C)cc1)C(c1cccs1)N1CCN(C)CC1 (stereo not drawn) | -0.1% | -42.8%[inhibitor] | 0.5 | 1.7% | 4.5 | 1.6 |
| COc1ccc(Cn2c(=O)c3cccnc3n(Cc3cccc(OC)c3)c2=O)cc1 | u | x | 0.4 | x | -1.6 | x |
| O=S(=O)(c1ccccc1Oc1ccc(Cl)cc1Cl)N1CCCCC1 | x | -16.2%[15.4 µM] | 3.3 | 0.4% | 86.5 | 5.6 |
| Cc1c(C)n(C)c2ccc(C(=O)NCCCN3CCN(c4ccc(F)cc4)CC3)cc12 | -9.5% | u | -0.6 | 3.2% | 0.8 | 4.2 |
| O=[N+]([O-])c1ccc(-c2cn(-c3ccccc3)c(=S)[nH]2)cc1 | -1.9% | -36.9% | 0.3 | -11.3% | 11.5 | -1.4 |
| COC(=O)c1ccc(NC(=O)c2ccccc2C(=O)Nc2ccc(C(=O)OC)cc2)cc1 | x | u | 3.8 | -2.5% | 3.2 | x |
| CC1CCN(C(=O)C2CCN(S(=O)(=O)c3cnc[nH]3)CC2)CC1 | -0.3% | 23.2% | -0.3 | -4.2% | -6.2 | -2.2 |
| CSc1ncccc1C(=O)NCC12CC3CC(CC(C3)C1)C2 | x | 16.1%[15.4 µM] | -0.6 | x | -2.6 | -0.7 |
| COC(=O)CC1=NN(c2ccc(OC)cc2)C(=O)C1 | x | -2.0%[15.4 µM] | -0.4 | -8.1% | 23.5 | 1.6 |
| CCOc1cccc(-c2nn3c(-c4ccco4)nnc3s2)c1 | 1.3% | 0.9% | -0.7 | -1.4% | -19.2 | 1.9 |
| O=c1[nH]c(=O)n(C(c2ccccc2)(c2ccccc2)c2ccccc2)cc1N(CCO)CCO | -1.0% | 1.2% | 0.6 | 6.2% | -6.6 | x |
| Cc1sc2ncnc(SCC(=O)N3CCCC3=O)c2c1C | 3.6% | -13.2% | -0.4 | -8.8% | -12.3 | 1.8 |
| Cc1ccc(-n2nc3ccc(N)cc3n2)cc1C | 4.6% | u | 0.0 | 6.3% | 3.8 | 3.9 |
| COc1cc(OC)c(OC)cc1CN1CCN(Cc2ccc(C(F)(F)F)cc2)CC1 | 0.3% | 7.4% | 0.1 | -5.7% | 10.1 | 3.0 |
| CS(=O)(=O)N1CCN(C(=O)NC23CC4CC(CC(C4)C2)C3)CC1 | -1.3% | -17.5% | -0.6 | 8.9% | -6.3 | -1.9 |
| Cc1ccc(OCCn2cnc3c2c(=O)n(C)c(=O)n3C)cc1 | x | 26.4%[15.4 µM] | 0.3 | 2.6% | -3.9 | 0.9 |
| Cc1ccc2nc(/N=C(\N)NC(=O)NC3CCCCC3)nc(C)c2c1 | x | -14.6% | 2.5 | -14.0% | -6.3 | 4.5 |
| COc1nnc(-c2ccc(C(=O)N3C[C@@H]4C[C@H](C3)c3cccc(=O)n3C4)cc2)c2ccccc12 | -2.0% | 4.1% | 0.1 | -3.1% | 13.5 | -6.1 |
| CC(C)C(=O)Nc1nc(-c2ccccc2)ns1 | -3.6% | -45.7%[inhibitor] | 7.0 | u | 8.4 | -1.1 |
| CCO/C(=C/c1sc2ccc(OC)cc2[n+]1CCCS(=O)(=O)[O-])CC | -12.6% | 0.0% | -0.4 | 7.8% | -0.9 | 3.4 |
| CCOC(=O)CN1C(=O)C(C)(C)Oc2ccc(C(=O)Nc3ccccc3OC)cc21 | 0.7% | -1.5% | 0.8 | u | 18.3 | -0.1 |
| NC(=O)c1c(NC(=O)CCCC(=O)O)sc2c1CCCCCC2 | -2.3% | 8.5% | 0.8 | -20.8% | 23.6 | 4.9 |
| O=C(CSc1ncnc2sc3c(c12)CCC3)N1CCOCC1 | x | 22.9%[15.4 µM] | -0.6 | -2.4% | 2.6 | 7.0 |

Not a hit list, and some 2.1% of all compounds hit somewhere here.
